Screens from PubChem.
NS1 function inh: blocks influenza NS1 protein function. S. cerevisiae slowed by influenza A NS1, growth recovery by OD600. Potency, µM (top dose mostly 46.1 µM), for inactives: at the highest dose activity, positive = more growth. 270,000 compounds, 0.4% hits; active means well fitted rising curve with a large enough effect; inconclusive means small, poorly fitted or top-dose-only effect; inactive means no such curve, though single readings can be large or run the other way; also: nearly all actives have a fitted effect of over 50% in size
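S. cerevisiae expressing influenza A NS1, grown in glucose, washed, then diluted 1:100 into pH 6.0 -URA galactose medium with 23 nl compound. Growth recovery read as OD600; NS1-free strain serves as control.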
RE007 growth inh: less growth of the S. pombe RE007 Vpr strain; S. pombe RE007 Vpr strain, BacTiter-Glo ATP luminescence, 24 h; control for the full effect not named in the record; Potency, µM (titrated, usually from 92.2 µM), without a hit: at the highest dose activity change, negative = less growth; AID 651644; 360,000 compounds, 0.21% hits; active = well fitted falling curve with a large enough effect; inconclusive = small, poorly fitted or top-dose-only effect; inactive = no such curve, though single readings can be large or run the other way;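 also: % is scaled to controls: 0 for no effect and ±100 for the full control effect; nearly all actives have a fitted effect of over 50% in size; the assay follows cell death caused by Vpr and the record does not say whether a fall means rescue or toxicity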
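Fission yeast strain RE007, carrying one chromosomally integrated HIV-1 vpr copy, was seeded at OD 0.01 in PMG+AL medium with 23 nL pinned compound. After 24 h at 30 °C and 99% humidity, viability was read by BacTiter-Glo luminescence.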
LASV entry inh: blocks Lassa virus binding to or entry into cells. Lassa virus pseudotype entry inhibition, cell reporter; control for the full effect not named in the record. Potency, µM (highest dose often 37.9 µM), inactives show top-dose activity change, negative = inhibition, usual class: inhibitors. 300,000 compounds, 1.2% hits. AID 540256; active means well fitted inhibition curve with a large enough effect; inconclusive means small, poorly fitted or top-dose-only effect, or effect the other way; inactive means flat fitted curve, though single readings scatter; tested in HEK293 cells; also: % is scaled to controls: 0 for no effect and ±100 for the full control effect; nearly all actives have a fitted effect of over 50% in size; luciferase read-out
StopGo reporter: FMDV 2A StopGo reporter, luciferase signal. 410,000 compounds, 1.2% hits. Potency, µM (series often up to 57.9 µM), for inactives: top-dose signal change, negative = less light. human cells with a luciferase reporter of 2A StopGo recoding; control for the full effect not named in the record; active = well fitted falling curve with a large enough effect; inconclusive = small, poorly fitted or top-dose-only effect; inactive = no such curve, though single readings can be large or run the other way; tested in HEK293T cells; also: % is scaled to controls: 0 for no effect and ±100 for the full control effect; nearly all actives have a fitted effect of over 45% in size; luciferase light after 4 h
Marburg entry inh: Marburg virus entry inhibition; Marburg virus pseudotyped entry inhibition, cell reporter; control for the full effect not named in the record; about a third of the inactives were read at about 46 µM; Potency, µM (doses to about 37.8 µM), for the others: at the top dose activity change, negative = inhibition, actives largely listed as inhibitors; 300,000 compounds, 1.8% hits; AID 540276; active = well fitted inhibition curve with a large enough effect; inconclusive = small, poorly fitted or top-dose-only effect, or effect the other way; inactive = flat fitted curve, though single readings scatter; tested in HEK293 cells; about a fifth of its hits are not listed in these tables; also: % is scaled to controls: 0 for no effect and ±100 for the full control effect; luciferase read-out
SARS PLP yeast: SARS-CoV PLP inhibition in yeast. S. cerevisiae expressing SARS-CoV PLpro, growth rescue; control for the full effect not named in the record. Potency, µM (titrated, usually from 32.9 µM), inactives show top-dose activity, positive = growth rescue. 330,000 compounds, 0.19% hits. AID 485353; active means well fitted rising curve with a large enough effect; inconclusive means small, poorly fitted or top-dose-only effect; inactive means no such curve, though single readings can be large or run the other way; also: 0% is about no effect; nearly all actives have a fitted effect of over 55% in size; growth read by luminescence after 48 h
Cruzain inh noDet: inhibitors of Trypanosoma cruzi cruzain without detergent. purified cruzain, Z-FR-AMC fluorescence, no detergent. P25779. 200,000 compounds, 2.3% hits. Potency, µM, without a hit: max response, negative = inhibition, actives largely listed as inhibitors;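 also: plate controls were enzyme without inhibitor for no effect and buffer without enzyme for full effect; nearly all actives have a fitted effect of over 40% in size; top concentration of the series not given in the record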
Target sequence (P25779 123-467 limits assumed): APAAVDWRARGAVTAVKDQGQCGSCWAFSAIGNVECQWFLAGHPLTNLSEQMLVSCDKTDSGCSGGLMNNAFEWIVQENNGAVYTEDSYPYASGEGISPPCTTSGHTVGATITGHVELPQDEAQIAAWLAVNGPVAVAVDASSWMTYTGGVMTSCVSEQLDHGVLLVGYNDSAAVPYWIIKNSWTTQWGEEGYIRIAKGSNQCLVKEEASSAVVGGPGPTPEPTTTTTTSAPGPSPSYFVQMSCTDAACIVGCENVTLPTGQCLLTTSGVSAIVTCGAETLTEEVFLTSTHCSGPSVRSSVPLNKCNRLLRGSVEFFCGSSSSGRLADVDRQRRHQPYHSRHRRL
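Purified cruzain at 1.5 nM, pre-incubated 15 min with compound at room temperature in 100 mM sodium acetate pH 5.5, 5 mM DTT, 0.00005% Triton X-100. Reaction started with 2 uM Z-FR-AMC; AMC fluorescence increase over 60 s gives rate.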
Cruzain inh Det: inhibitors of Trypanosoma cruzi cruzain with detergent. P25779. purified cruzain, Z-FR-AMC fluorescence, 0.01% Triton. Potency, µM, inactives show max response, negative = inhibition, hits mostly inhibitors. 200,000 compounds, 0.43% hits. AID 1478;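 also: plate controls were neutral wells for no effect and buffer without enzyme for full effect; nearly all actives have a fitted effect of over 40% in size; top concentration of the series not given in the record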
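15 min RT preincubation of 1.5 nM cruzain with compound, then 2 uM Z-FR-AMC added; kinetic AMC fluorescence, 60 s delta. Triton X-100 0.01%, pH 5.5.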
* hit, by the source's call; ? = inconclusive; · = no result given; & = joins results of further samples; [ ] = remark or other dose. Unless noted, calls follow the shape of the dose curve; as a rule, active = well fitted curve in the direction sought with a large enough effect; inconclusive = small, poorly fitted or top-dose-only effect, or another doubt; inactive = no such curve, though single readings can be large; an effect the other way counts as inactive or inconclusive. Potency is read from the fitted curve at half-maximal effect.

Second line of a record: StopGo reporter	LASV entry inh	Cruzain inh Det	Cruzain inh noDet	NS1 function inh	RE007 growth inh	SARS PLP yeast	Marburg entry inh
1) CCOC(=O)N1CCC(N(CCOC)C(=O)Nc2ccc(CC)cc2)CC1
  ·	-18.8%	-1.8%	?	-11.7%	-8.3%	-3.0%	15.0%
2) O=C(CNC1CC1)Nc1cc(C(F)(F)F)ccc1Cl
  -20.7%	·	·	·	7.0%	19.1%	-0.9%	·
3) C#CC[N+]1(CC#Cc2cccc(C)c2)CCCCC1
  -19.4%	-19.4%	·	·	·	-3.3%	-0.3%	-6.9%[46.1 µM]
4) Cc1ccc(S(=O)(=O)Oc2ccccc2[N+](=O)[O-])cc1
  6.6%	12.0%[46.1 µM]	·	·	·	0.2%	·	-14.2%[46.1 µM]
5) Cc1ccc(S(=O)(=O)N(CC(=O)N2CCc3ccccc3C2)c2ccc(Cl)c(Cl)c2)cc1
  25.1%	?	-4.8%	-18.4%	?	-2.4%	-0.3%	?
6) COC(=O)c1ccccc1NC(=O)c1noc2c1CCCC2
  12.9%	0.3%	-1.7%	-6.0%	-18.2%	?	-0.3%	16.5%
7) O=C(CN1C(=O)COc2ccc(S(=O)(=O)N3CCCCC3)cc21)NCc1ccccc1Cl
  -4.5%&5.3%	-2.8%&20.4%[46.1 µM]	0.8%	-2.5%	5.8%	10.5%	-1.8%	15.0%&15.0%[46.1 µM]
8) CC1CCc2nc(/C(C#N)=C/c3cccnc3)sc2C1 (stereo not drawn)
  24.4%	?	·	·	·	-5.5%	-15.4%	?
9) CCC1CCCCN1CCCNC(=O)CN1C(=O)CSc2ccc(S(=O)(=O)N3CCC(C)CC3)cc21 (stereo not drawn)
  -16.8%&-9.6%	2.4%[46.1 µM]	5.4%	4.6%	1.78µM*	-8.3%	17.4%	·
10) Cc1ccc(CNC(=O)C(=O)NCC2OCCN2S(=O)(=O)c2ccc(Cl)cc2)cc1 (stereo not drawn)
  ?	?	·	·	·	8.6%	·	-22.2%
11) CCCCNc1nc(Oc2ccc(OCC)nn2)nc(N2CCOCC2)n1
  3.9%	8.7%[46.1 µM]	-0.2%	22.0%	·	·	·	-6.5%[46.1 µM]
12) COCCCn1cnc2c(c1=O)c1nc3ccccc3nc1n2-c1ccccc1
  0.0%	22.2%	-7.1%	?	-10.0%	2.4%	18.7%	-4.4%
13) COc1cc(C(=O)Nc2ccccc2OCc2cc(=O)n3cc(C)sc3n2)cc(OC)c1OC
  0.0%	-1.3%[46.1 µM]	0.8%	-11.2%	·	·	·	10.7%[46.1 µM]
14) CCCCOc1ccc(/C(O)=C2/C(=O)C(=O)N(CCCOC)C2c2ccncc2)cc1C (stereo not drawn)
  ·	-3.7%	-5.6%	?	-13.9%	-14.0%	-7.1%	3.2%
15) O=c1oc2ccccc2c(Cl)c1CN1CCCCC1
  ?	·	·	·	2.1%	-5.3%	-0.6%	·
16) CCOC(=O)CSc1nc(C)c2cc(OC)ccc2n1
  61.9%[activator]	?	5.0%	12.2%	-16.7%	-14.0%	-4.2%	22.9%
17) CC[C@]12c3[nH]c4ccc(OC)cc4c3CCN1C(=O)C(CC(=O)NCCN1CCOCC1)C[C@@H]2C(=O)N1CCN(C(=O)C2CC2)CC1 (stereo partly drawn)
  -15.1%	·	·	·	·	0.7%	22.5%	-0.1%
18) Cc1ccnc(SCC(=O)Nc2sc3c(c2C#N)CCCC3)n1
  ?	-17.4%	-4.0%	?	-34.1%	-6.8%	7.6%	-27.3%
19) Cc1ccc(C(=O)O/N=C/C2=C(Cl)c3ccccc3CC2)cc1
  18.1%	0.8%	1.5%	-9.7%	4.7%	2.7%	-6.1%	2.3%
20) CC(C)(CNC(=S)NCCc1ccccc1)CNC(=S)NCCc1ccccc1
  ?	?	-3.1%	7.8%	8.3%	1.8%	19.6%	?
21) CCCCn1c(SCC(N)=O)nnc1-c1ccco1
  -17.8%	4.3%	8.7%	-2.7%	-5.0%	9.1%	0.8%	0.2%
22) Cc1cccc(NC(=O)Cn2cnc3c(oc4ccccc43)c2=O)c1
  2.4%	18.3%	·	·	·	-2.5%	0.2%	4.2%
23) NC(=O)[C@@H]1CC2(CC(c3cccc(NC(=O)COc4ccc(Cl)cc4)c3)=NO2)CN1C(=O)COc1ccc(Cl)cc1 (stereo partly drawn)
  0.0%	·	·	·	-12.7%	-1.7%	-0.8%	·
24) COc1ccc(SCC(=O)c2cc(C)c(OC(=S)N(C)C)c(C)c2)cc1
  -1.3%	?	-0.1%	-4.7%	-8.5%	-5.6%	-1.3%	-2.6%[46.1 µM]
25) CC(C(=O)NC1=NCCS1)N1C(=O)c2ccccc2C1=O (stereo not drawn)
  -4.5%	7.8%	5.0%	2.2%	4.9%	-1.8%	2.0%	0.6%
26) COc1ccc(C2(C)NC(=O)N(CC3CCCCC3)C2=O)cc1 (stereo not drawn)
  -19.2%	-14.5%	·	·	1.1%	-4.2%	-1.6%	-17.7%[46.1 µM]
27) CCCCCCCCCCCCCCCC(=O)O[C@H](CC(=O)O)C[N+](C)(C)C
  -18.6%	·	-1.3%	?	·	·	·	-26.9%&-26.9%
28) CCCN(CCC)C(C(=O)Nc1cccc(OC)c1)c1ccccc1 (stereo not drawn)
  5.9%	15.2%	-1.3%	-10.1%	-16.8%	-6.8%	-0.4%	?
29) O=[N+]([O-])c1ccc(Oc2ccc(-c3cnc4ccccc4n3)cc2[N+](=O)[O-])cc1
  12.9%	23.8%	-2.4%	?	-0.2%	6.7%	24.2%	-14.8%
30) O=C(Nc1ccccc1)C1=C[C@H](c2coc3ccccc3c2=O)C[C@H](OCCCCO)O1
  7.5%	·	·	·	0.6%	-16.1%	-0.7%	·

The list continues:
Second line of a record: StopGo reporter	LASV entry inh	Cruzain inh Det	Cruzain inh noDet	NS1 function inh	RE007 growth inh	SARS PLP yeast	Marburg entry inh
31) CCOc1ccccc1NC(=O)C1CC(=O)n2ncnc2N1 (stereo not drawn)
  -13.4%	0.1%	5.3%	-2.2%	-4.6%	-8.1%	5.4%	-4.6%
32) COC(=O)Cn1c(=NC(=O)c2ccc(Cl)s2)sc2cc(F)ccc21
  15.2%	10.8%	-9.3%	25.1µM*	3.9%	8.3%	-17.6%	?
33) COc1ccc(CN(C)c2ccc(S(=O)(=O)N3CCN(C)CC3)cc2[N+](=O)[O-])cc1OC
  ?	?	·	·	·	-5.9%	-6.6%	?
34) C=CCn1c(O)c(C(CC)=NCc2ccc3c(c2)OCO3)c(=O)[nH]c1=O
  -3.8%	?	·	·	-0.8%	17.9%	-0.4%	14.2%[14.2 µM]
35) Cc1ccc(S(=O)(=O)C2(C(=O)Nc3ccc(Cl)c(C(F)(F)F)c3)CC2)cc1
  -2.4%	7.5%[46.1 µM]	-10.0%	7.3%	·	·	·	-27.1%[46.1 µM]
36) O=C1c2ccccc2C2(c3ccccc3)NCCCN12 (stereo not drawn)
  11.6%	·	·	·	-2.0%	4.4%	-1.1%	·
37) CC(C)N(Cc1ccccc1)C(=O)CN1c2cccc3cccc(c23)S1(=O)=O
  -29.9%	-6.6%	·	·	·	-12.6%	-28.2%	?
38) CCCC(=O)Nc1ccc(-c2csc(NNC(C)=O)n2)cc1
  29.5%	-4.9%[46.1 µM]	·	·	13.2%	18.1%	1.6%	5.1%[46.1 µM]
39) Cc1ccc(C(C)C)c(OCCSc2nc(-c3cccs3)nc3cc(=O)[nH]n23)c1
  ?	?	0.6%	7.94µM*	·	·	·	·
40) CCCCC(Sc1nc(N)c(NC(=O)c2ccc(OC)cc2)c(=O)[nH]1)C(=O)O (stereo not drawn)
  -12.3%	22.1%	·	·	·	2.0%	3.1%	6.7%[46.1 µM]
41) CCCCn1c(N)c(N(CC(C)C)C(=O)c2ccc(N3C(=O)CCC3=O)cc2)c(=O)[nH]c1=O
  -6.8%	5.6%	·	·	·	17.9%	-2.9%	-1.6%
42) COCCNC(=O)/C(C#N)=C/c1ccccc1Br
  -14.0%	-15.2%	·	·	-36.2%	-21.2%	-0.6%	?
43) COc1ccc(N2CC(C(=O)O)CC2=O)cc1 (stereo not drawn)
  11.2%	?	0.7%	10.2%	10.5%	12.1%	-30.5%	13.2%
44) COc1ccc(C)cc1NC(=O)C(Sc1ccccc1)c1ccccc1 (stereo not drawn)
  ·	-27.9%	-6.3%	-12.8%	3.4%	·	-12.4%	-14.2%
45) NC(=O)c1ccccc1NC(=O)c1ccc(-c2ccc(Br)cc2)o1
  -6.9%	17.2%[46.1 µM]	-2.0%	-2.4%	·	·	·	?
46) O=C(NCC1CCCO1)C(c1ccccn1)N(Cc1ccccc1Cl)C(=O)CN1C(=O)c2ccccc2S1(=O)=O (stereo not drawn)
  16.9%	9.6%[46.1 µM]	·	·	-2.1%	-15.2%	-1.0%	-0.1%[46.1 µM]
47) O=C(CSc1nc(O)c(C(c2ccccc2)c2ccccc2)c(=O)[nH]1)N1CCOCC1
  -13.1%	25.3%[46.1 µM]	·	·	3.6%	16.0%	1.7%	10.3%[46.1 µM]
48) CC(SC(C)C(=O)NN=Cc1c[nH]c2ccccc12)C(=O)NN=Cc1c[nH]c2ccccc12 (stereo not drawn)
  4.2%	-14.8%[46.1 µM]	·	·	·	-9.8%	·	12.0%[46.1 µM]
49) Cc1csc(SC(C)C(=O)Nc2ccc(F)cc2Cl)n1 (stereo not drawn)
  -16.9%	?	·	·	·	2.6%	-2.0%	0.1%
50) CCOC(=O)C(O)(c1ccc(NC(=S)NC(=O)c2ccc(Cl)cc2Cl)cc1)C(F)(F)F (stereo not drawn)
  -2.0%	?	-4.8%	-5.6%	19.4%	-18.4%	-5.6%	?
51) Cc1ccc2[nH]c(C)cc(=S)c2c1
  -11.3%	-10.7%	·	·	·	-16.2%	-1.1%	?
52) COc1cc(OC)c(NC(=O)Nc2ccccc2OCc2cc(=O)n3cc(C)ccc3n2)cc1Cl
  -4.2%	2.8%[46.1 µM]	1.4%	?	·	·	·	·
53) NC(=O)c1ccc(NC(=O)CC23CC4CC(CC(Br)(C4)C2)C3)cc1
  -14.5%	20.6%[46.1 µM]	·	·	2.1%	-11.0%	6.2%	17.1%[46.1 µM]
